# From PubChem
# Yeast UUG start – modulators of start codon recognition fidelity in yeast | hit rate 0.13% among 350,000 | AID 602363 | activity score, % at 18.7 µM | S. cerevisiae UUG-firefly luciferase reporter, luminescence/redox ratio;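 active = replicate mean at a twofold rise or more, about +100% in these data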;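 also: firefly luciferase made from a UUG start codon reports start codon fidelity; reporter light over untreated wells divided by growth signal over untreated wells; some hits fall short of that in this replicate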
# HIV Env fusion – blocks HIV Env-driven cell-cell fusion; HeLa-JRFL Env/CEM21 cell fusion, luciferase; inhibition, % at 12.3 µM; hit rate 1.1% among 360,000;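 active = mean replicate inhibition score of at least 50 and every replicate individually at or above 50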;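 also: 0% = plate neutral controls and 100% = maraviroc near 300 nM; one replicate is shown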
# * = called active by the depositor; & = joins results of further samples; [ ] = remark or other dose. Only part of the results is shown; the hit share may differ from the screen's.
item	Structure	Yeast UUG start	HIV Env fusion
1	COc1ccc(NC(=O)N(C)C[C@@H]2Oc3cc(-c4ccncc4)ccc3S(=O)(=O)N([C@H](C)CO)C[C@@H]2C)cc1	172.2*	-11.2[16.7 µM]
2	CN1CCN(C(=O)C[C@H]2C[C@H]3c4cc(NC(=O)C5CCOCC5)ccc4O[C@H]3[C@@H](CO)O2)CC1	-2.0	0.4[16.7 µM]
3	O=C(N[C@H]1CC[C@@H](CCNS(=O)(=O)c2ccc(Cl)cc2)O[C@H]1CO)c1cccnc1	-5.2	-4.9[16.7 µM]
4	C/C=C/c1ccc2c(c1)O[C@H](CN(C)C(=O)NC1CCCC1)[C@@H](C)CN([C@H](C)CO)S2(=O)=O	10.3	-4.7[16.7 µM]
5	C[C@@H]1CN([C@H](C)CO)C(=O)c2cc(NS(=O)(=O)c3cccs3)ccc2O[C@@H](C)CCCCO[C@@H]1CN(C)C(=O)c1ccccc1	-0.4	5.0[16.7 µM]
6	CNC[C@@H]1Oc2ccc(NC(=O)Nc3cccc4ccccc34)cc2CC(=O)N([C@@H](C)CO)C[C@H]1C	24.4	3.9[16.7 µM]
7	C[C@@H]1CN([C@@H](C)CO)C(=O)Cc2cc(NC(=O)Nc3cccc4ccccc34)ccc2O[C@@H]1CN(C)CC1CCCCC1	11.0	-173.4[16.7 µM]
8	C[C@H]1CN([C@@H](C)CO)C(=O)c2cc(C#CC3CCCCC3)cnc2O[C@H]1CN(C)S(=O)(=O)c1ccc(F)cc1	0.9&-2.9	14.6[16.7 µM]
9	COc1ccc(C#Cc2ccc3c(c2)O[C@@H](CN(C)C(C)=O)[C@H](C)CN([C@@H](C)CO)S3(=O)=O)cc1	-13.3	26.3[16.7 µM]
10	COc1ccc(S(=O)(=O)N(C)C[C@@H]2Oc3ccc(NC(=O)Nc4ccc(F)cc4)cc3CC(=O)N([C@H](C)CO)C[C@H]2C)cc1	6.4	-38.7[16.7 µM]
11	C[C@@H]1CN([C@@H](C)CO)S(=O)(=O)c2ccc(C#Cc3ccccc3)cc2O[C@H]1CN(C)C(=O)C1CC1	-31.4	47.9[16.7 µM]
12	O=S(=O)(N[C@H]1CC[C@@H](CCn2cc(-c3ccccc3F)nn2)O[C@@H]1CO)c1ccc(Cl)cc1	26.7	0.4[16.7 µM]
13	C[C@@H]1CN([C@H](C)CO)C(=O)c2cc(NC(=O)CCCCCC(=O)Nc3ccccc3N)ccc2O[C@@H]1CN(C)S(C)(=O)=O	-3.6	-55.7[16.7 µM]
14	COc1cccc(-c2cnc3c(c2)C(=O)N([C@@H](C)CO)C[C@H](C)[C@H](CN(C)C(=O)Nc2ccccc2F)O3)c1	18.2	1.5[16.7 µM]
15	CCC(=O)N[C@@H]1CC[C@H](CC(=O)NCc2ccccc2OC)O[C@@H]1CO	-6.7	-26.4[16.7 µM]
16	CC(C)C#Cc1cnc2c(c1)C(=O)N([C@@H](C)CO)C[C@@H](C)[C@H](CN(C)Cc1ccccc1F)O2	1.6	22.3[16.7 µM]
17	C/C=C/c1ccc2c(c1)O[C@@H](CN(C)Cc1cncnc1)[C@H](C)CN([C@H](C)CO)S2(=O)=O	15.4	5.4[16.7 µM]
18	CCCC#Cc1cnc2c(c1)C(=O)N([C@@H](C)CO)C[C@H](C)[C@H](CN(C)C(=O)c1cnccn1)O2	-4.3	-0.6[16.7 µM]
19	C[C@@H]1CN([C@H](C)CO)S(=O)(=O)c2ccc(C#CCN(C)C)cc2O[C@H]1CN(C)Cc1ccccc1F	1.2	14.4[16.7 µM]
20	C[C@@H]1CCCCO[C@@H](CN(C)S(=O)(=O)c2ccc(F)cc2)[C@@H](C)CN([C@H](C)CO)C(=O)c2cc(NS(=O)(=O)c3cn(C)cn3)ccc2O1	15.2	-3.4[16.7 µM]
21	O=C(C[C@@H]1C=C[C@@H](NS(=O)(=O)c2ccccc2)[C@H](CO)O1)NCc1ccccc1F	-2.5	-3.0[16.7 µM]
22	C[C@@H]1CCCCO[C@H](CN(C)C(=O)C2CCCCC2)[C@H](C)CN([C@H](C)CO)C(=O)c2cc(NC(=O)Cc3ccccc3)ccc2O1	33.3	-44.0[16.7 µM]
23	O=C(C[C@H]1C=C[C@@H](NC(=O)NC2CCCC2)[C@@H](CO)O1)NCc1ccc(F)cc1	-0.9	3.9[16.7 µM]
24	C[C@H]1CCCCO[C@@H](CN(C)C(=O)Nc2ccccc2)[C@@H](C)CN([C@@H](C)CO)C(=O)c2cc(NC(=O)CCC(F)(F)F)ccc2O1	-10.5	-5.4[16.7 µM]
25	C[C@H]1CCCCO[C@H](CN(C)C(=O)Nc2ccccc2)[C@@H](C)CN([C@@H](C)CO)C(=O)c2cc(NC(=O)c3ccccc3)ccc2O1	1.4	26.3[16.7 µM]
26	COc1ccccc1-c1ccc2c(c1)O[C@@H](CN(C)C(C)=O)[C@H](C)CN([C@@H](C)CO)S2(=O)=O	0.6	-6.7[16.7 µM]
27	Cc1ccc(S(=O)(=O)N(C)C[C@H]2Oc3c(NC(=O)c4cnccn4)cccc3C(=O)N([C@@H](C)CO)C[C@@H]2C)cc1	1.4	-4.4[16.7 µM]
28	CO[C@H]1CN(C)C(=O)c2cc(NS(C)(=O)=O)ccc2OC[C@@H](C)N(C(=O)CN(C)C)C[C@H]1C	-4.3	-22.9[16.7 µM]
29	C[C@@H]1CN([C@H](C)CO)C(=O)c2cc(NC(=O)C3CCCCC3)ccc2O[C@@H](C)CCCCO[C@H]1CN(C)C(=O)Nc1cccc2ccccc12	-6.7	8.7[16.7 µM]
30	C[C@H](CO)N1C[C@H](C)[C@H](CN(C)CC2CCCCC2)Oc2ccc(NC(=O)Nc3ccc(F)cc3)cc2C1=O	19.3	12.8[16.7 µM]

# More results
item	Structure	Yeast UUG start	HIV Env fusion
31	CC(C)NC(=O)N(C)C[C@@H]1Oc2c(NS(=O)(=O)c3cn(C)cn3)cccc2C(=O)N([C@H](C)CO)C[C@H]1C	1.3	13.8[16.7 µM]
32	CC(C)CC#Cc1cnc2c(c1)C(=O)N([C@H](C)CO)C[C@H](C)[C@@H](CN(C)C(=O)Cc1ccccc1)O2	4.7	18.2[16.7 µM]
33	O=S(=O)(N[C@@H]1CC[C@@H](CCn2cc(-c3cccnc3)nn2)O[C@@H]1CO)c1ccc(F)cc1	-2.5	-11.3[16.7 µM]
34	C[C@@H]1CN([C@H](C)CO)S(=O)(=O)c2ccc(C#Cc3ccccc3)cc2O[C@H]1CN(C)C	5.8	0.8[16.7 µM]
35	C[C@@H]1CN([C@H](C)CO)C(=O)c2cc(C#CC(C)(C)O)cnc2O[C@@H]1CN(C)C(=O)C1CCOCC1	-5.0	-8.7[16.7 µM]
36	C[C@@H]1CN([C@@H](C)CO)C(=O)c2cc(NC(=O)Cc3cn(C)c4ccccc34)ccc2O[C@@H]1CN(C)S(=O)(=O)c1ccccc1	-7.3	-8.4[16.7 µM]
37	C[C@@H]1CN([C@@H](C)CO)C(=O)c2cc(-c3cccc(F)c3)cnc2O[C@@H]1CN(C)Cc1ccncc1	-3.7	4.0[16.7 µM]
38	COCC(=O)N(C)C[C@H]1Oc2cc(-c3ccncc3)ccc2S(=O)(=O)N([C@@H](C)CO)C[C@H]1C	-0.3	-10.3[16.7 µM]
39	C/C=C/c1cnc2c(c1)C(=O)N([C@@H](C)CO)C[C@@H](C)[C@@H](CN(C)S(=O)(=O)c1ccc(F)cc1)O2	75.8	6.8[16.7 µM]
40	C[C@H]1CCCCO[C@H](CN(C)C(=O)Nc2ccc(C(F)(F)F)cc2)[C@@H](C)CN([C@@H](C)CO)C(=O)c2cc(NC(=O)CCC(F)(F)F)ccc2O1	-19.2	47.4[16.7 µM]
41	C[C@H](CO)N1C[C@H](C)[C@H](CN(C)Cc2ccncc2)Oc2ccc(NC(=O)CCCCCC(=O)Nc3ccccc3N)cc2CC1=O	-5.1	10.6[16.7 µM]
42	O=C(NCc1ccc(F)cc1)[C@H]1C[C@H]2C(=O)N3CCC[C@H]3C(=O)N2[C@H]1c1ccc(O)cc1	-8.4	6.6[16.7 µM]
43	CN(C)C(=O)C[C@@H]1CC[C@@H](NC(=O)c2ccc(F)cc2)[C@H](CO)O1	-21.4	5.1[16.7 µM]
44	C[C@@H]1CN([C@H](C)CO)C(=O)c2cc(NC(=O)Cc3ccccc3)ccc2O[C@@H](C)CCCCO[C@@H]1CN(C)C(=O)CCC(F)(F)F	12.5	-36.9[16.7 µM]
45	NCC[C@H]1CC[C@@H](NC(=O)Cc2ccncc2)[C@@H](CO)O1	2.0	20.7[16.7 µM]
46	C[C@H](CO)N1C[C@H](C)[C@@H](CN(C)S(=O)(=O)c2ccc(Cl)cc2)Oc2c(NC(=O)c3ccc(-c4nccs4)cc3)cccc2C1=O	1.4	-21.2[16.7 µM]
47	Cc1noc(C)c1S(=O)(=O)N(C)C[C@H]1OCCCC[C@H](C)Oc2ccc(NC(=O)Nc3ccc(F)cc3)cc2C(=O)N([C@H](C)CO)C[C@@H]1C	1.5	20.9[16.7 µM]
48	C[C@@H]1CCCCO[C@@H](CN(C)S(=O)(=O)c2ccc(Cl)cc2)[C@H](C)CN([C@H](C)CO)C(=O)c2cc(NS(=O)(=O)c3ccc(F)cc3)ccc2O1	-0.8	25.2[16.7 µM]
49	N#C[C@H]1N[C@H](CO)[C@H]1c1ccc(C#Cc2cccnc2)cc1	-21.1	-9.8[16.7 µM]
50	C[C@H]1CN([C@@H](C)CO)C(=O)Cc2cc(NC(=O)Cc3ccccc3)ccc2O[C@H]1CN(C)Cc1ccc(Cl)c(Cl)c1	-2.0	0.9[16.7 µM]
51	Cc1ccc(S(=O)(=O)N(C)C[C@@H]2OCCCC[C@@H](C)Oc3ccc(NC(=O)CCC(F)(F)F)cc3C(=O)N([C@H](C)CO)C[C@@H]2C)cc1	-0.8	21.5[16.7 µM]
52	O=C(Cc1cccnc1)N[C@@H]1CC[C@@H](CCn2cc(-c3ccccc3F)nn2)O[C@@H]1CO	-9.8	-16.2[16.7 µM]
53	C[C@@H]1CCCCO[C@@H](CN(C)Cc2ccc(C(=O)O)cc2)[C@@H](C)CN([C@@H](C)CO)C(=O)c2cc(NC(=O)Nc3ccc4c(c3)OCO4)ccc2O1	7.1	-3.8[16.7 µM]
54	COc1ccc(S(=O)(=O)Nc2ccc3c(c2)C(=O)N([C@@H](C)CO)C[C@@H](C)[C@@H](CN(C)C(=O)c2ccccc2)OCCCC[C@H](C)O3)cc1	1.5	2.6[16.7 µM]
55	COc1cccc(S(=O)(=O)N(C)C[C@H]2Oc3ncc(C#CCN(C)C)cc3C(=O)N([C@@H](C)CO)C[C@H]2C)c1	13.8	-3.9[16.7 µM]
56	C[C@H]1CCCCO[C@H](CN(C)C(=O)NC2CCCCC2)[C@@H](C)CN([C@@H](C)CO)C(=O)c2cc(NS(=O)(=O)c3cccs3)ccc2O1	2.2	-1.3[16.7 µM]
57	O=C1N(Cc2ccccc2)Cc2ccccc2[C@H]2OC(c3ccc(OCCCO)cc3)=N[C@@]12Cc1ccccc1	1.4	29.3[16.7 µM]
58	CCCC(=O)Nc1ccc2c(c1)OC[C@H](C)N(C(=O)C1CCCC1)C[C@@H](C)[C@H](OC)CN(C)C2=O	25.5	-0.1[16.7 µM]
59	COC(=O)C[C@H]1CC[C@H]2[C@H](COc3ccc(NS(=O)(=O)c4cccc(F)c4)cc3C(=O)N2C)O1	33.0	-13.3[16.7 µM]
60	C[C@@H]1CCCCO[C@@H](CN(C)C(=O)Nc2cccc3ccccc23)[C@@H](C)CN([C@H](C)CO)C(=O)c2cc(NC(=O)NC3CCCCC3)ccc2O1	-21.3	22.5[16.7 µM]

# New compounds follow.
item	Structure	Yeast UUG start	HIV Env fusion
61	O=C(N[C@@H]1CC[C@@H](CCNS(=O)(=O)c2ccc(F)cc2)O[C@@H]1CO)c1cccnc1	-7.1	-7.9[16.7 µM]
62	CC(C)NC(=O)N(C)C[C@@H]1Oc2c(cccc2N(C)C)C(=O)N([C@H](C)CO)C[C@@H]1C	5.3	-9.1[16.7 µM]
63	O=C1OCCN1C(=O)[C@H]1[C@H](c2ccccc2)C(c2ccc(F)cc2)=NN1c1ccc(Br)cc1	7.6	-34.2
64	Cc1ccc(S(=O)(=O)Nc2ccc3c(c2)C(=O)N([C@@H](C)CO)C[C@H](C)[C@H](CN(C)C(=O)CCCN(C)C)OCCCC[C@@H](C)O3)cc1	50.1	18.2[16.7 µM]
65	C[C@H](CO)N1C[C@H](C)[C@H](CN(C)C(=O)Nc2cccc3ccccc23)Oc2ccc(NC(=O)Cc3ccccc3)cc2CC1=O	11.4	-6.7[16.7 µM]
66	C[C@@H]1CN([C@@H](C)CO)C(=O)c2cccc(NC(=O)c3ccncc3)c2O[C@H]1CN(C)Cc1ccc(C(F)(F)F)cc1	-12.5	36.1[16.7 µM]
67	N#C[C@@H]1N[C@@H](CO)[C@@H]1c1ccc(C2=CCCC2)cc1	-17.0	-6.6[16.7 µM]
68	C[C@@H]1CN([C@H](C)CO)C(=O)c2cc(NC(=O)CCN3CCOCC3)ccc2O[C@@H]1CN(C)S(=O)(=O)c1cccs1	-27.4	-1.3[16.7 µM]

# 5 compounds from above, ordered by the value under Yeast UUG start, descending.
item	Structure	Yeast UUG start	HIV Env fusion
64	Cc1ccc(S(=O)(=O)Nc2ccc3c(c2)C(=O)N([C@@H](C)CO)C[C@H](C)[C@H](CN(C)C(=O)CCCN(C)C)OCCCC[C@@H](C)O3)cc1	50.1	18.2[16.7 µM]
63	O=C1OCCN1C(=O)[C@H]1[C@H](c2ccccc2)C(c2ccc(F)cc2)=NN1c1ccc(Br)cc1	7.6	-34.2
62	CC(C)NC(=O)N(C)C[C@@H]1Oc2c(cccc2N(C)C)C(=O)N([C@H](C)CO)C[C@@H]1C	5.3	-9.1[16.7 µM]
66	C[C@@H]1CN([C@@H](C)CO)C(=O)c2cccc(NC(=O)c3ccncc3)c2O[C@H]1CN(C)Cc1ccc(C(F)(F)F)cc1	-12.5	36.1[16.7 µM]
67	N#C[C@@H]1N[C@@H](CO)[C@@H]1c1ccc(C2=CCCC2)cc1	-17.0	-6.6[16.7 µM]
